High-throughput results from PubChem BioAssay.
Lassa entry: inhibitors of Lassa virus binding or entry into cells | Lassa virus pseudotyped entry inhibition, cell-based qHTS; control for the full effect not named in the record; many of its hits are not listed in these tables | Potency, µM (doses to about 49.2 µM), for the others: top-dose activity change, negative = inhibition, actives largely listed as inhibitors | actives 4.1% (n = 18,000) | AID 720533; active = well fitted inhibition curve with a large enough effect; inconclusive = small, poorly fitted or top-dose-only effect; inactive = no such curve, though single readings can be large or run the other way; tested in HEK293 cells; also: luciferase read-out
MARV entry inh: blocks Marburg virus binding or cell entry | Potency, µM (series often up to 49.2 µM), without a hit: at the highest dose activity change, negative = inhibition, hits mostly inhibitors | actives 6.5% (n = 18,000) | AID 720532 | Marburg virus pseudotype entry/binding inhibition, cell-based; control for the full effect not named in the record; many of its hits are not listed in these tables; active means well fitted inhibition curve with a large enough effect; inconclusive means small, poorly fitted or top-dose-only effect; inactive means no such curve, though single readings can be large or run the other way; tested in HEK293 cells; also: luciferase read-out
* marks the source's active call; other numbers are inactive results; ? = inconclusive; . = not tested or not shown; & = joins results of further samples; [ ] = dose if it differs, or a comment. % is scaled to controls: 0 for no effect and ±100 for the full control effect; potency is read from the fitted curve at half-maximal effect. The list is partial, so the mix of outcomes need not match the whole.

1. COc1cc2[nH]c(C)c(CCN3CCN(c4ccccc4)CC3)c2cc1OC
2. CC[C@H](C)[C@H](NC(=O)CNC(=O)[C@H](CC(C)C)NC(=O)[C@H](CC(C)C)NC(=O)[C@H](CCC(N)=O)NC(=O)[C@H](CCC(N)=O)NC(=O)[C@H](CC(=O)O)NC(=O)[C@H](CCCCN)NC(=O)[C@H](CC(C)C)NC(=O)[C@H](Cc1ccc(O)cc1)NC(=O)[C@H](CCCNC(=N)N)NC(=O)[C@H](CCC(=O)O)NC(=O)[C@@H](NC(=O)[C@H](C)NC(=O)[C@H](CC(C)C)NC(=O)[C@@H](NC(=O)[C@@H](N)CCCNC(=N)N)[C@@H](C)CC)C(C)C)C(=O)N[C@@H](Cc1c[nH]c2ccccc12)C(=O)NCC(=O)N[C@@H](CS)C(=O)N[C@@H](CO)C(=O)O
3. O=C(c1ccc2c(c1)OCO2)N1CCOc2ccc(CN3CCC(Oc4cccnc4)CC3)cc2C1
4. CCC1CN(CCNC(=O)c2scc3c2OCCO3)Cc2cc(OC)ccc2O1 (configuration not stated)
5. O=C1CSC(c2ccccc2Cl)c2cc(Cl)ccc2N1 (configuration not stated)
6. CC(C)C1C(=O)N(Cc2cn(Cc3ccco3)nn2)CCS(=O)(=O)N1Cc1ccc(-c2ccccc2)cc1 (configuration not stated)
7. COC(=O)Nc1nc2ccc(SC(C)C)cc2[nH]1
8. CC(C)(C)OC(=O)N1CCC[C@H]1C(O)(c1ccccc1)c1ccccc1
Screen / compound no.	1	2	3	4	5	6	7	8
MARV entry inh	?	-13%	-10%	-2%	?	?	-24%[17.8 µM]	23%
Lassa entry	-13%	-12%	2%	-21%	?	?	-22%[17.8 µM]	-6%

9. Cc1ccc(-c2ccc(CN3C(C)C(=O)N(Cc4cn(Cc5ccco5)nn4)CCS3(=O)=O)cc2)cc1 (configuration not stated)
10. CC(C)CN[S+](=O)([O-])c1ccc(Br)cc1N1CCC[C@H]1CO
11. Cc1cnc(-n2ncc(C(=O)NCC(C)(C)N3CCOCC3)c2C(C)C)nc1-c1ccc(F)cc1
12. O=S(=O)(O)c1ccc(Nc2ncnc3c2ncn3[C@@H]2O[C@H](CO)[C@@H](O)[C@H]2O)cc1
13. Cc1cc(C(=O)Nc2ccccc2-c2nc(CNC(=O)c3ccc(F)cc3F)c(C)o2)c(C)o1
14. CC(C)C[C@@H](CC(=O)N[C@@H](CCCN)CC(=O)N[C@@H]1CCNC[C@H]1C(=O)N[C@H](CC(=O)N[C@@H](CCC(=O)O)CC(=O)O)Cc1ccccc1)NC(=O)[C@@H]1CNCC[C@H]1N
15. CSCC[C@H](N)C(=O)N[C@@H](CCCN=C(N)N)C(=O)N[C@@H](Cc1ccccc1)C(=O)N[C@@H](Cc1ccccc1)C(=O)N[C@H](C(=O)O)C(C)C
16. Cc1ccc(CN2CC(N3CCCC3)CS2(=O)=O)cc1 (configuration not stated)
Screen / compound no.	9	10	11	12	13	14	15	16
MARV entry inh	?	14%	-15%	17%	-10%	-10%	-3%	8%
Lassa entry	?	15%	-25%	-13%	2%	4%	5%	10%

17. CCCCCCCCCCN1CCOCCOCCN(CCCCCCCCCC)CCOCCOCC1
18. COc1ccc(OC)c([C@H](O)[C@H](C)N)c1
19. COc1cc([C@@H]2c3cc4c(cc3C(O[C@@H]3O[C@@H]5CO[C@@H](C)O[C@H]5[C@H](O)[C@H]3O)C3COC(=O)[C@@H]32)OCO4)cc(OC)c1OP(=O)(O)O (some centres not stated)
20. CCOC(=O)NN=C1C[C@@H](O)[C@@H](O)[C@@H]2[C@H]3C(=O)N(C4CCCCC4)C(=O)[C@@H]3CC[C@H]12
21. NC[C@@H](CC(=O)O)c1ccc(Cl)cc1
22. CCCCC/C=C\C/C=C\CCCCCCCCCC(=O)NCC(=O)O
23. Cc1cc2oc(=O)cc(-c3ccccc3)c2c(C)c1-c1cccc(N)c1
24. OC1(c2cccnc2)CCN(Cc2ccc3c(c2)CN(Cc2ccc(F)c(F)c2)CCO3)CC1
Screen / compound no.	17	18	19	20	21	22	23	24
MARV entry inh	7%	-14%[17.8 µM]	2.8µM*	20%[8.59 µM]	-19%	0%	-11%	?
Lassa entry	-6%	11%[17.8 µM]	3.2µM*	.	-6%	2%	?	0%

Brought forward from above: four entries; new compounds follow.
21. NC[C@@H](CC(=O)O)c1ccc(Cl)cc1
22. CCCCC/C=C\C/C=C\CCCCCCCCCC(=O)NCC(=O)O
23. Cc1cc2oc(=O)cc(-c3ccccc3)c2c(C)c1-c1cccc(N)c1
24. OC1(c2cccnc2)CCN(Cc2ccc3c(c2)CN(Cc2ccc(F)c(F)c2)CCO3)CC1
25. C/C=C(\C)C(=O)N[C@@H](c1ccccc1)[C@@H](O)C(=O)O[C@H]1C[C@@]2(O)[C@@H](OC(=O)c3ccccc3)C3[C@](C)(C(=O)[C@H](OC(C)=O)C(=C1C)C2(C)C)[C@@H](O)C[C@H]1OC[C@@]31OC(C)=O (some centres not stated)
26. O=C(OC1C[C@H]2CC[C@@H](C1)[N+]21CCCC1)C(O)(c1ccccc1)c1ccccc1 (some centres not stated)
27. COc1cc(O)c(C(=O)C=Cc2ccc3c(c2)OCO3)c(OC)c1
28. CC(=O)N/N=C/c1ccc([N+](=O)[O-])o1
29. COc1cc(OC)c(OC)cc1CN1CCC(n2cc(C(=O)N3CCCCC3)nn2)CC1
30. C[C@H]1C=C2C=C[C@H](C)[C@H](CC[C@@H]3C[C@@H](O)CC(=O)O3)[C@H]2[C@@H](OC(=O)[C@@H](C)CCO)C1
31. CC(C)C[C@@H](CC(=O)N[C@@H](CCC(=O)O)CC(=O)O)NC(=O)[C@@H]1CCCC[C@H]1NC(=O)C[C@@H](NC(=O)C[C@H](CO)NC(=O)[C@@H]1CNCC[C@H]1N)C(C)C
32. CC(=O)N[C@H]1[C@@H](O[C@@H](C)C(=O)O)[C@H](O)[C@H](CO)O[C@@H]1O
Screen / compound no.	21	22	23	24	25	26	27	28	29	30	31	32
MARV entry inh	-19%	0%	-11%	?	?	18%	10%[8.59 µM]	26%	?	2%	-2%	5%[17.8 µM]
Lassa entry	-6%	2%	?	0%	?	-6%	12%[8.59 µM]	-6%	13%	10%	-4%	3%[17.8 µM]

33. COC(=O)NC(C=Cc1ccccc1)C(C(C)=O)C(=O)OC (configuration not stated)
34. Nc1ncnc2occ(-c3ccc(NC(=O)Nc4cccc(C(F)(F)F)c4)cc3)c12
35. Cc1ccc(N)c(Cl)c1
36. Cc1ccc(O)cc1Nc1ccnc2cc(-c3ccccn3)ccc12
37. O=C1OC(c2ccc(O)c(S(=O)(=O)O)c2)(c2ccc(O)c(S(=O)(=O)O)c2)c2c(Br)c(Br)c(Br)c(Br)c21
38. CC(CCc1ccc(O)cc1)N1CCOc2c(O)cc(-c3nc4ccccc4s3)cc2C1 (configuration not stated)
39. O=C(c1ccc2c(c1)OCO2)N(Cc1cc2cc3c(cc2nc1N1CCOCC1)CCC3)CC1CCCO1 (configuration not stated)
40. N=C(N)S/C=C\C(=O)O
Screen / compound no.	33	34	35	36	37	38	39	40
MARV entry inh	?	?	-8%	14µM*	5%	?	7%	9%&4%
Lassa entry	-11%[8.59 µM]	.	-1%	?	5%	?	-2%	8%&-5%

41. CC(C)C[C@H](NC(=O)[C@H](CCCCN)NC(=O)[C@H](CCCNC(=N)N)NC(=O)[C@H](C)NC(=O)[C@H](CO)NC(=O)[C@H](CCCCN)NC(=O)[C@H](CCCNC(=N)N)NC(=O)[C@H](C)NC(=O)CNC(=O)[C@@H](NC(=O)[C@H](Cc1ccccc1)NC(=O)CNC(=O)CNC(=O)[C@@H](N)Cc1ccccc1)[C@H](C)O)C(=O)N[C@@H](C)C(=O)N[C@@H](CC(N)=O)C(=O)N[C@@H](CCC(N)=O)C(=O)O
42. COc1ccc(-n2c(CNC(=O)c3ccc(OC)cc3OC)nnc2SC)cc1
43. C[C@@](Cc1ccc(O)c(O)c1)(NN)C(=O)O
44. O=P12OCC=C[C@H](C[C@H](CC3C#C3)O1)O2
45. COCOc1c2c(c(OCOC)c3c(OCOC)cccc13)/C(=N/N[S+](=O)([O-])c1ccc(C)cc1)C1=C2CCCC1
46. CCC(C(=O)NC(=O)NC(C)=O)c1ccccc1 (configuration not stated)
47. CCOC(=O)C1Oc2ccccc2C(c2ccc(C)cc2)=C1C(=O)OC (configuration not stated)
48. C[C@@H](NC(=O)[C@@H](N)Cc1ccc(O)cc1)C(=O)NCC(=O)N(C)[C@@H](Cc1ccccc1)C(=O)NCCO
Screen / compound no.	41	42	43	44	45	46	47	48
MARV entry inh	10%	-14%	12%&4%	74%[activator]	-29%	2%	-13%	5%
Lassa entry	-13%	?	0%&1%	.	9%	-5%	-19%	-10%

49. Cc1c2oc3c(C)ccc(C(=O)NC4C(=O)NC(C(C)C)C(=O)N5CCCC5C(=O)N(C)CC(=O)N(C)C(C(C)C)C(=O)OC4C)c3nc-2c(C(=O)NC2C(=O)NC(C(C)C)C(=O)N3CCCC3C(=O)N(C)CC(=O)N(C)C(C(C)C)C(=O)OC2C)c(N)c1=O (configuration not stated)
50. COc1cccc(C(=O)N(Cc2cc3ccc(C)cc3nc2N(C)C)C2CC2)c1OC
51. C[N+](C)(C)CCOC(N)=O
52. O=C(CN1Cc2ccccc2OC(c2ccsc2)C1)NCC1OCCc2ccccc21 (configuration not stated)
53. CCOC(=O)N(C)C(=O)CSP(=S)(OCC)OCC
54. CNC(=O)c1cccc(C#Cc2cncnc2Nc2ccc(OCc3cccc(F)c3)c(Cl)c2)c1
55. COc1ccccc1C1CN(Cc2cnn(C)c2)Cc2ccccc2O1 (configuration not stated)
56. COc1ccc2c(c1)OCC(Cc1ccc(OC)c(OC)c1)C2O (configuration not stated)
Screen / compound no.	49	50	51	52	53	54	55	56
MARV entry inh	?	4µM*	-6%	-10%	3%	2.5µM*	?	1%&2%
Lassa entry	?	5µM*	-18%	-5%	-10%	.	4%	-7%&-3%

57. Cc1ccc(S(=O)(=O)N2CCC(=O)N(CCOC(=O)Nc3ccc(F)cc3)CC2)cc1
58. COC(=O)C1=C[C@@H]([C@@H](C)[C@H](OC)c2ccccc2Br)[C@@H]2OCC[C@H]12
59. O=C(Nc1cccc(C(=O)N2CCOCC2)c1)c1ccccc1
60. COC(=O)C1=C(C(=O)OC)[C@@H]2N(C)c3ccccc3[C@@]23CCC(=O)N(Cc2ccco2)C3=N1
61. CCC(C)C(NC)C(=O)O (configuration not stated)
62. N[C@H](C(=O)O)c1cccc(O)c1
63. O=C(/C=C/c1ccc(O)cc1)c1c(O)cc(O)cc1O
64. Cc1cccc(CNCCn2cc(C(=O)Nc3ccccc3)nn2)c1
Screen / compound no.	57	58	59	60	61	62	63	64
MARV entry inh	22%	40%[activator][8.59 µM]	20%	16%[8.59 µM]	-11%	15%&17%&17%	25%	7%
Lassa entry	15%	32%[activator][8.59 µM]	-24%	.	0%	-1%&-4%&-15%	-7%	13%

Filtered by structure: the compounds so far with a thiophene ring, fused or not.
4. CCC1CN(CCNC(=O)c2scc3c2OCCO3)Cc2cc(OC)ccc2O1 (configuration not stated)
52. O=C(CN1Cc2ccccc2OC(c2ccsc2)C1)NCC1OCCc2ccccc21 (configuration not stated)
Screen / compound no.	4	52
MARV entry inh	-2%	-10%
Lassa entry	-21%	-5%

Additional structures follow.
65. CN1CCC(n2cnc(-c3ccc(F)cc3)c2-c2ccnc(NCCO)n2)CC1
66. O=S(=O)(CCNCc1ccco1)NCc1ccccc1
67. O=C1C[C@@H](c2ccc(O)cc2)Oc2cc(O[C@@H]3O[C@H](CO)[C@@H](O)[C@H](O)[C@H]3O)cc(O)c21
68. C[C@@H]1N[S+](=O)([O-])c2cccc(Cl)c2O[C@H]1c1ccccc1
69. COC[C@H]1O[C@@H]2O[C@@H]1[C@@H](C=Cc1ccccc1)C[C@H]2C
70. COc1ccc([C@]23Cc4c(ccc5ccccc45)[C@H](O2)C2=C(CCCC2=O)O3)cc1
71. CC(N)(C(=O)O)c1cccc(CC(=O)O)c1 (configuration not stated)
72. N[C@H](C(=O)O)[C@H](OCc1ccccc1)C(=O)O
73. C[C@]12CC[C@@H]3c4ccc(OC(=O)N(CCCl)CCCl)cc4CC[C@H]3[C@@H]1CC[C@@H]2OP(=O)(O)O
Screen / compound no.	65	66	67	68	69	70	71	72	73
MARV entry inh	?	23%	-8%	33%[activator]	5%[8.59 µM]	-21%[8.59 µM]	3%	8%	4%&-2%
Lassa entry	.	37%[activator]	-5%	?	20%[8.59 µM]	13%[8.59 µM]	10%	14%	0%&-8%
